# S aureus helic: inhibitors of S. aureus replicative helicase, primary screen, biochemical, fluorescence unwinding readout; hit rate 0.05% among 120,000; replicative DNA helicase (DnaC/DnaB), Staphylococcus aureus; purified S. aureus helicase, fluorescence unwinding assay; about half of the hits fall short of the stated cut; inhibition, %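 (tested at about 80 µM)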;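 active = both duplicates at 50% or more, or one of them with a favoured structure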;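 note: 0% = mean of negative control wells and 100% = mean of positive control wells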
# MgrA DNA FP: S. aureus MgrA activity modulators, primary screen, biochemical, S. aureus Newman, fluorescence polarization | MgrA-DNA binding | hit rate 0.13% among 84,000 | inhibition, %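 (about 10 µg/mL by stock and volumes)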;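 active = above 50% in either of two replicates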;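 note: 0% = protein plus DNA without compound and 100% = DNA alone without protein; higher means less MgrA bound to DNA so lower polarization; one replicate is shown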
# * hit, by the source's call; · = no result given; & = joins results of further samples. These rows are one share of the data. The share of hits here may be higher or lower than overall.
S aureus helic	MgrA DNA FP	compound
·	0.7	O=c1/c(=C/c2cn(Cc3ccccc3Cl)c3ccccc23)sc2nc3ccccc3n12
-6	·	O=C(/C=C/c1ccccc1)N1CCc2ccccc21
8	-0.1	COc1ccc(-n2c(SCC(=O)c3ccc(Cl)cc3)nc3ccccc3c2=O)cc1
0	0.5	CC1=NC(=O)/C(=C\c2ccc(O)cc2)N(C)N1c1ccccc1
-15	-0.8	CC(C)NC(=O)c1ccccc1NS(=O)(=O)c1ccc(F)cc1
20	·	CCN1CCN(c2cc(C)c3cc(NC(=S)N4CCOCC4)ccc3n2)CC1
5	-9.0	CCC(C(=O)O)n1nc(C)c2sc3ccccc3c2c1=O (configuration not stated)
-9	-0.3	N#CC(Cc1ccccc1)Sc1ccccc1 (configuration not stated)
-2	·	CCNC(=S)N1CCn2cccc2C1c1ccccc1F (configuration not stated)
4	1.9	O=C(CSc1nc2ccccc2o1)Nc1ccc(N2CCOCC2)c(Cl)c1
21	·	O=C(NC1CC1)c1ccc2c(c1)CCN2S(=O)(=O)c1ccccc1
11	6.7	C=CCn1cc(C=C2C(=O)N(C)C(=S)N(C)C2=O)c2ccccc21
-5	3.1	N#C/C(=C/c1ccc(-c2ccc(Br)cc2)o1)C(=O)NC1CCCCC1
-13	·	Cc1cc(C(=O)CN2C(=O)CNC2=O)c(C)n1-c1ccccc1
8	·	CC(=O)Nc1ncnc2nc[nH]c12
·	0.9	O=S(=O)(CCCCl)NC1CCN(Cc2ccccc2)CC1
10	-2.5	O=C(c1cc2nc(-c3ccco3)cc(C(F)(F)F)n2n1)N1CCSCC1
-5	·	O=C1c2ccccc2C(=O)N1CN1CCN(Cc2ccccc2)CC1
·	0.2	S=c1[nH]nc(CSCc2cccc3ccccc23)n1-c1ccccc1
2	·	COc1cccc(C(Nc2ccccn2)c2oc(CO)cc(=O)c2O)c1 (configuration not stated)
·	0.6	Cc1ccccc1NC(=S)N1CCOCC1
-209	·	COCCn1c(O)c(/C=N/Nc2nc(C)cc(C)n2)c(=O)[nH]c1=S
·	0.6	COc1ccc(-c2[nH]ncc2/C=C(\C#N)S(C)(=O)=O)cc1
·	-2.4	O=C(CSC1=NCCCCC1)c1ccc([N+](=O)[O-])cc1
5	·	CSc1nc(=O)n(Cc2ccccn2)c2c1CCC2
·	-1.1	COc1ccc(OS(=O)(=O)c2ccc(NC(C)=O)cc2)cc1
16	·	CN(C)Cc1ccccc1CNC(=O)c1ccc(N(C)C)cc1
16	2.2	Cc1occc1C(=O)Nc1ccc(C(=O)N2CCCCC2)cc1
-21	·	O=C(NCc1cccnc1)Nc1c[nH]c2ccccc2c1=O
·	0.7	COc1cc(C2Nc3ccccc3S2)cc(OC)c1OC (configuration not stated)
-6	·	CC1c2cccn2CCN1C(=O)CCn1ccnc1 (configuration not stated)
-16	0.9	CC(NC(=O)c1cccnc1)C(c1ccccc1)N1CCN(C)CC1 (configuration not stated)
8	0.8	Cc1ccc(Cn2c3ccccc3n3cc(C)nc23)cc1
-7	·	O=C(c1ccc(NS(=O)(=O)c2ccc(Cl)s2)cc1)N1CCN(C(=O)c2cccs2)CC1
-19	·	COc1cccc(C(=O)Oc2ccc3oc(=O)sc3c2)c1
8	·	CCNS(=O)(=O)c1c(C)cc(N2CCCC2=O)cc1C
-1	1.8	O=C(/C=C/c1ccco1)OC(C(=O)c1ccccc1)c1ccccc1 (configuration not stated)
-17	·	Cc1ccc(C(=O)Nc2cc3[nH]c(=O)[nH]c3cc2C)cc1
-25	·	CCOC(=O)C1=C(CNc2ccc(OCC)cc2)NC(=O)NC1c1ccccc1 (configuration not stated)
-4	·	NC(=O)COC(=O)C1CCN(S(=O)(=O)c2ccccc2C(F)(F)F)CC1
18	-0.8	Cc1ccc2nc(NC(=O)C(Cc3ccccc3)n3cccc3)sc2c1 (configuration not stated)
-11	·	O=C(CCn1[nH]c(=O)ccc1=O)Nc1nc2ccccc2[nH]1
-39	·	O=C(c1cccs1)N1CCN(C(=O)C2CCCCC2)CC1
17	-0.2	NC(=O)C1CCN(C(=O)CN2CCN(c3ccccn3)CC2)CC1
-1	1.6	Cc1cc(N2CCC3(CC2)OCCO3)n2ncnc2n1
·	-0.9	COc1ccc2[nH]c(C(=O)N3CCC(Cc4ccccc4)CC3)cc2c1
0	·	COc1ccc(OC)c(N=C2SCCN2C(=O)CC2CCCC2)c1
11	0.7	O=C(c1cc(C2CC2)on1)N1CCN(c2ccccc2)CC1
8	-2.6	CC1CC(C)CN(S(=O)(=O)c2ccc(Cl)cc2)C1 (configuration not stated)
-6	·	CC(C)NC(=O)NCc1ccc(C(=O)OCc2nnc(-c3ccccc3)o2)cc1

# Next structures.
S aureus helic	MgrA DNA FP	compound
9	·	Cc1sc2c(c1C)CN(C1CCCC1)CN2C(=O)c1ccccc1
-1	·	C=CCn1c(Cc2nnc(SCC(=O)c3ccccc3)n2CC=C)nnc1SCC(=O)c1ccccc1
·	4.5	COC(=O)CCCCCCCC(=O)Nc1ccc(OC)c(OC)c1
-38	·	O=C(Cn1cnc2ccccc21)N/N=C/c1sc(N2CCCCC2)nc1-c1cccs1
12	21	COc1cc(C(=S)N(C)C)ccc1O
-17	·	CC(C)c1ccc(NC(=S)N=C(N)N)cc1
11	0.1	O=C1CC(c2ccccc2)n2nc(NC(=O)c3ccco3)nc2N1 (configuration not stated)
-10	-1.3	CCN(CC)c1ccc2c(N3CCCCC3)cc(=O)oc2c1
·	-2.6	COC(=O)c1c(O)c2ccccc2oc1=O
-21	·	CC1CCCCN1C(=O)Nc1noc2c1COc1ccccc1-2 (configuration not stated)
5	1.9	Cc1cc2nc(SCC(=O)C(C)(C)C)[nH]c2cc1C
0	-0.5	O=C(c1ccc2c(c1)OCO2)N1CCc2ccccc2C1
9	·	O=C(Cn1nc(Cc2cccnc2)c2ccccc2c1=O)NCCCN1CCCC1=O
-4	·	Cn1c(-c2ccccc2)c(C(=O)CSc2nnc3n2CCCCC3)c2ccccc21
12	-6.9	O=C(Cn1cc2c(n1)CCCC2)NC1CCCC1
20	·	Cc1ccc(/C=C/C(=O)OCc2cc(=O)n3cc(Br)ccc3n2)o1
13&-23	4.0&-0.6	Oc1ccccc1/C=N/c1ncn[nH]1
-22	0.7	CCc1ccc(OCC(=O)C(C#N)c2nc3ccccc3[nH]2)cc1 (configuration not stated)
9	0.0	O=C(CCn1[nH]c(=O)c2ccccc2c1=O)OC1CCCCC1
7	·	Cn1c(=O)c2[nH]c(N3CCCC3)nc2n(C)c1=O
·	5.1	Cn1c(=O)c2c(nc(NCc3ccc4c(c3)OCO4)n2Cc2c(Cl)cccc2Cl)n(C)c1=O
-8	·	COc1ccc(CCNc2ccccc2C(=O)O)cc1OC
20	0.3	COc1ccccc1OCC(=O)Nc1cccc(Cl)c1Cl
·	-1.7	Cc1cc(N=Nc2ccc(C(F)(F)F)cc2)c2c(C)ccc(C(C)C)cc1-2
19	·	S=c1nc(-c2ccco2)[nH][nH]1
·	-0.2	O=C(c1nn2c(C(F)(F)F)cc(-c3ccco3)nc2c1Cl)N1CCN(Cc2ccccc2)CC1
-3	·	CN1CCN(/N=c2\cc(-c3ccccc3)oc3ccccc23)CC1
0	1.9	Cc1nn(-c2cc(N3CCCCC3)ccc2N)c(=O)c2ccccc12
8	·	O=C(O)CN1c2cccc3cccc(c23)S1(=O)=O
-11	·	COc1cccc2c1OC1(C)CC2N(C(=O)c2ccc(Br)o2)C(=S)N1c1ccc(C)cc1 (configuration not stated)
·	-3.4	O=C(O)/C=C/C(=O)Nc1ccc(N2CCOCC2)nc1N1CCOCC1
8	-0.5	O=C(Nc1nnc(C2CCCCC2)s1)c1ccc2c(c1)OCO2
-5	·	COc1ccc(NC(=O)C2CCN(c3nn4cc(-c5ccc(OC)cc5)nc4s3)CC2)cc1
13	-2.7	CCc1cccc(Nc2c3c(nc4ncnn24)CCC3)c1
10	·	CCC(=O)NCc1nc2ccccc2n1C(C)c1ccccc1 (configuration not stated)
21	·	Cc1oc(-c2ccccc2F)nc1CS(=O)(=O)CC(=O)N1CCCCCC1
10	·	CC(C)CC(NC(=O)CC12CC3CC(CC(C3)C1)C2)C(=O)N1CCOCC1 (configuration not stated)
·	1.1	CN1C(=O)/C(=C2/Sc3ccccc3N2C)SC1=Nc1ccccc1
·	-1.1	COc1cc(C(=O)Oc2cc(C)cc(C)c2)cc(OC)c1OC
6	-2.9	CC(C)c1ccc(C2C3=C(CC(c4cccs4)CC3=O)Nc3ncnn32)cc1 (configuration not stated)
·	-0.3	CC(NCCc1ccc(O)cc1)C(O)c1ccc(O)cc1 (configuration not stated)
4	2.0	Cc1[nH]c2ccccc2c1C(O)c1cccnc1 (configuration not stated)
3	1.5	O=C1CCC(=O)N1CNc1cccc(Cl)c1
1	-2.6	CC1=C(C(=O)Nc2ccccc2)C(c2ccc(C)cc2)N=C(Nc2nc3ccccc3o2)N1 (configuration not stated)
-14	-1.2	CN(Cc1ccccc1)C(=O)COc1cccc2ccccc12
·	2.6	COc1ccc(-c2nnsc2N2C(=O)c3ccccc3C2=O)cc1
10	·	COC(=O)CSc1nccc(=O)[nH]1
·	-2.9	COC(=O)c1ccccc1NC(=O)c1ccc2c(c1)OCCCO2
4	0.8	Cc1nnc(SCc2ccc(F)cc2Cl)c2cc3occc3n12
-7	·	O=C(CSc1nnnn1C1CCCC1)c1ccc(NC(=O)c2ccccc2)cc1

# Remaining list, next part:
S aureus helic	MgrA DNA FP	compound
-19	·	CN(C)S(=O)(=O)c1ccc(C(=O)Nc2nccs2)cc1
4&-5	1.1&4.0	Cn1c(COc2ccccc2)n[nH]c1=S
·	3.4	O=C(Oc1cc2ccccc2cc1C(=O)O)c1cccc(Cl)c1
7	0.9	CC(C)N(C)NC(=S)Nc1ccccc1
·	-2.1	COC(=O)c1sc(C(F)(F)F)c(-c2ccccc2)c1N=CN
·	-2.1	Cc1cn(C(=O)c2snnc2C)nc1-c1cccs1
0	·	COc1ccc(N2CCN(C(=O)c3ccc(NC(=O)C4=C(C)OCCS4)cc3)CC2)cc1
-22	·	Cc1ccc2c(c1)-c1onc(C(=O)N(C)c3ccccc3)c1CO2
·	3.4	O=C(Nc1ccccc1)Nc1sccc1-c1nc2ccccc2s1
-17	·	NC(=O)c1c(NC(=O)COC(=O)C2CC(=O)N(Cc3ccco3)C2)sc2c1CCC2 (configuration not stated)
4	-0.9	COc1cc(NC(=O)C(C)C)ccc1NC(=O)C(C)C
-1	·	CCOc1cccc(NC(=O)c2ccc(S(=O)(=O)N3CCCCCC3)cc2)c1
-21	·	C#CCSc1nnnn1-c1cccc(Cl)c1
8	4.6	CC(C)(C)c1ccc(C(=O)N2CCC(C(=O)NC3CC3)CC2)cc1
1	·	CC1CN(Cc2cc(Cl)c3cccnc3c2O)CC(C)O1 (configuration not stated)
8	·	NCCOC(=O)Nc1nc2ccccc2[nH]1
7	-0.6	O=S(=O)(c1ccc(O)c(N=Cc2ccccc2O)c1)C(F)(F)F
·	-1.5	CC(C)S(=O)(=O)c1cnc(C(F)(F)F)nc1N
11	0.4	O=c1[nH]c(SCc2ccccc2Cl)nc2c1cnn2-c1ccccc1
·	1.2	N#CCOc1ccc2nonc2c1
13	0.8	COc1ccccc1C1CC(=O)N2CN(C3CCCCC3)CSC2=C1C#N (configuration not stated)
·	1.0	O=S(=O)(c1cc(Cl)cc(Cl)c1)N1CCN(S(=O)(=O)c2cccs2)CC1
-15	·	CC(C)(C)c1ccc(NC(=O)CN2CCOCC2)c(NC(=O)c2ccco2)c1
1	·	Cn1cc(CC(=O)NCC2CCCO2)c2ccccc21 (configuration not stated)
9	·	Cc1cc(-c2ccccc2)[o+]c(-c2ccccc2)c1
-2	1.8	CS(=O)(=O)N(CCc1ccccc1)CC(=O)N1CCOCC1
3	·	CC1CC(=O)Nc2ccccc2N1C(=O)COc1ccccc1Br (configuration not stated)
2	0.3	NC(=O)COc1ncnc2ccccc12
-4	·	Cc1ccc2c(c1)N(CC(=O)c1ccc(F)cc1)C=NS2(=O)=O
-10	·	N#Cc1c(NC(=O)c2ccc(Cn3cc(Br)cn3)o2)sc2c1CCCCCC2
-7	·	COc1ccc(C(=O)Nc2sc3c(c2C(=O)NCc2cccnc2)CCCC3)cc1
18	·	Cc1ccc(NC(=O)CSc2nccn2C)cc1
-98	·	COC(=O)C1=C(C)N(CCc2ccc(OC)c(OC)c2)C(=O)/C1=C\c1ccc(N(C)C)cc1

# In the list so far, these have a Cl atom:
S aureus helic	MgrA DNA FP	compound
·	0.7	O=c1/c(=C/c2cn(Cc3ccccc3Cl)c3ccccc23)sc2nc3ccccc3n12
8	-0.1	COc1ccc(-n2c(SCC(=O)c3ccc(Cl)cc3)nc3ccccc3c2=O)cc1
4	1.9	O=C(CSc1nc2ccccc2o1)Nc1ccc(N2CCOCC2)c(Cl)c1
·	0.9	O=S(=O)(CCCCl)NC1CCN(Cc2ccccc2)CC1
-7	·	O=C(c1ccc(NS(=O)(=O)c2ccc(Cl)s2)cc1)N1CCN(C(=O)c2cccs2)CC1
8	-2.6	CC1CC(C)CN(S(=O)(=O)c2ccc(Cl)cc2)C1 (configuration not stated)
·	5.1	Cn1c(=O)c2c(nc(NCc3ccc4c(c3)OCO4)n2Cc2c(Cl)cccc2Cl)n(C)c1=O
20	0.3	COc1ccccc1OCC(=O)Nc1cccc(Cl)c1Cl
·	-0.2	O=C(c1nn2c(C(F)(F)F)cc(-c3ccco3)nc2c1Cl)N1CCN(Cc2ccccc2)CC1
3	1.5	O=C1CCC(=O)N1CNc1cccc(Cl)c1
4	0.8	Cc1nnc(SCc2ccc(F)cc2Cl)c2cc3occc3n12
·	3.4	O=C(Oc1cc2ccccc2cc1C(=O)O)c1cccc(Cl)c1
-21	·	C#CCSc1nnnn1-c1cccc(Cl)c1
1	·	CC1CN(Cc2cc(Cl)c3cccnc3c2O)CC(C)O1 (configuration not stated)
11	0.4	O=c1[nH]c(SCc2ccccc2Cl)nc2c1cnn2-c1ccccc1
·	1.0	O=S(=O)(c1cc(Cl)cc(Cl)c1)N1CCN(S(=O)(=O)c2cccs2)CC1

# Compound activity deposited in PubChem by ICCB-Longwood Screening Facility, Harvard Medical School.
